# Rango dissoc inh: inhibitors of RanGTP-induced Rango-importin beta complex dissociation. O95149+P62826. 340,000 compounds, 0.071% hits. Potency, µM (top dose mostly 46.1 µM), without a hit: at the highest dose activity change, negative = inhibition. Biochemical FRET Rango-importin beta, RanGTP-induced dissociation. AID 540253; active means falling FRET ratio curve, often poorly fitted, with flat reads before Ran was added; inconclusive means other falling curves, or compound fluorescence or quenching; inactive means flat or rising ratio curve;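 note: potency is the fitted concentration of half-maximal effect; % of control where 0% means no effect; nearly all actives have a fitted effect of over 45% in size; -100% = wells without RanGTP and RCC1; the record marks most hits as doubtful in a second field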
#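 Rango/importin beta premix (0.1/0.25 uM final), PBS + 1 mM DTT + 0.02% Tween-20 + 0.1% BSA; cpd 5 min RT; FRET pre-read; + RanGTP-RCC1 (0.6 uM Ran, 2 mM GTP, 0.2 uM RCC1); 45 min RT; FRET post-read, ex 430, em 486/530 nm.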
# Rango complex inh: inhibitors of Rango-importin beta complex formation; Rango CFP/YFP FRET sensor + importin beta, 45 min; Potency, µM (doses to about 92.2 µM), inactives show at the top dose inhibition of complex formation; 340,000 compounds, 0.031% hits; Q14974; AID 540263; active = rising FRET ratio curve, often small or poorly fitted; inconclusive = mostly compound fluorescence or quenching in the first reads; inactive = flat curves in all reads;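 note: potency is the fitted concentration of half-maximal effect; 0% = DMSO wells and 100% = buffer wells lacking importin beta; nearly all actives have a fitted effect of over 15% in size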
#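 FRET biosensor Rango (snurportin 1 IBB between N-terminal EYFP and C-terminal Cerulean), 50 nM in PBS/1 mM DTT/0.02% Tween-20/0.1% BSA, preincubated 5 min RT with compound; 0.125 microM importin beta added, 45 min RT, CFP/YFP FRET ratio read.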
# GLA inh pH 4.5: alpha-galactosidase A (human) inhibition, pH 4.5. P06280. purified enzyme, 4-MU-alpha-Gal fluorescence, pH 4.5. activity change, negative = inhibition, % at 105 µM. 230,000 tested, under 10 active; inconclusive = small, poorly fitted or top-dose-only inhibition, or a rising curve; inactive = flat fitted curve, though single readings scatter; no compound was filed as active;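 note: 0% = full activity with enzyme and -100% = basal without enzyme; dose as in the result columns while the protocol names 77 µM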
# Target sequence (P06280 whole entry, looked up): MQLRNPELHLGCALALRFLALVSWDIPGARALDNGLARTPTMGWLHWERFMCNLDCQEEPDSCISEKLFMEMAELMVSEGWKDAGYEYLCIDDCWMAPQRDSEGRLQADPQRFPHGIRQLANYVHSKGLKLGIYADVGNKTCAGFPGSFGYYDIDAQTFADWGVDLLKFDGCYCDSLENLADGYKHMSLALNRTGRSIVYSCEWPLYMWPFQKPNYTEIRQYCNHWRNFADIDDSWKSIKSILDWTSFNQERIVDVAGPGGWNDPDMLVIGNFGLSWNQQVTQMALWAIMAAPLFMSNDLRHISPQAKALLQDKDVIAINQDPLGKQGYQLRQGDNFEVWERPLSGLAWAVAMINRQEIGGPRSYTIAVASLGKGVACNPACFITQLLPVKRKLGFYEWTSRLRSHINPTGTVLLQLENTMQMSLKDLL
# miR-21 FLuc: miR-21 reporter, rising signal. HeLa miR-21 FLuc reporter, luciferase, 48 h. 340,000 tested, under 10 active. AID 2288. Potency, µM (top dose mostly 38.3 µM), for inactives: top-dose reporter change, positive = more light; active = well fitted rising curve with a large enough effect; inconclusive = small, poorly fitted or top-dose-only effect; inactive = no such curve, though single readings can be large or run the other way;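 note: % of control where 0% means no effect; miR-21 action dims this reporter so a rising signal means less miR-21 action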
#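 HeLa cells stably expressing CMV-driven firefly luciferase with a downstream miR-21 binding sequence, endogenously expressing miR-21, were treated with titrations (up to about 40uM final) for 48 hours at 37 degree Celsius. Luciferase luminescence was read after lysis.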
# Active calls of the source: *; u = inconclusive; x = no result given. This is a subset. The share of hits here may be higher or lower than overall.
# Start of the data: the first two entries (preview)
Rango complex inh,GLA inh pH 4.5,Rango dissoc inh,miR-21 FLuc,SMILES
-0.4%,-4.7,-9.7%,0.8%,CCN1C(=O)C(O)(CC(=O)/C=C/C=C/c2ccccc2)c2ccccc21 (stereo not drawn)
-2.1%,x,-5.7%,23.9%,CN1C(=O)C(C)(C)c2cc(S(=O)(=O)N3CCCC(C(=O)Nc4ccc(Cl)cc4)C3)ccc21 (stereo not drawn)

# This part in full, previewed entries included:
Rango complex inh,GLA inh pH 4.5,Rango dissoc inh,miR-21 FLuc,SMILES
-0.4%,-4.7,-9.7%,0.8%,CCN1C(=O)C(O)(CC(=O)/C=C/C=C/c2ccccc2)c2ccccc21 (stereo not drawn)
-2.1%,x,-5.7%,23.9%,CN1C(=O)C(C)(C)c2cc(S(=O)(=O)N3CCCC(C(=O)Nc4ccc(Cl)cc4)C3)ccc21 (stereo not drawn)
4.2%,x,-7.2%,-1.6%,COC(=O)C(C)NC(=O)C1CCCN1C(=O)CNC(=O)OCc1ccccc1 (stereo not drawn)
2.9%,x,6.7%,2.6%,CC(C)C[C@H](NC(=O)N1CCn2c1nc1ccccc12)C(=O)NC1CC1
-2.2%,3.3,9.7%,-5.2%,COc1ccc(N2C(=O)NC(NC(=O)c3cccnc3)(C(F)(F)F)C2=O)cc1 (stereo not drawn)
-0.7%,-1.8,-9.4%,-2.7%,CC(C)OC(=O)C(CC(=O)O)NCc1ccccc1 (stereo not drawn)
-0.1%,13.7,15.5%,-13.9%,CCN(CC)C(=O)c1cc2c(=O)n3cccc(C)c3nc2n1C
-3.8%,2.4,1.5%,-2.0%,COc1cc(C)c(S(=O)(=O)N2CCN(C)CC2)cc1C
3.3%,-10.8,-23.7%,-72.1%,CCOC(=O)c1c(C)[nH]c(N=Nc2ccc(OC)cc2)c1C
-0.7%,-8.6,-3.2%,-6.2%,CCOc1cc(C2/C(=C(/O)c3ccc(OC)cc3)C(=O)C(=O)N2CC2CCCO2)ccc1O (stereo not drawn)
u,x,7.7%,-0.1%,O=C(O)Cc1c(-c2ccccc2)c2cc(Cl)ccc2[nH]c1=O
u,-2.7,-8.3%,3.1%,CCC(C)(C)NC(=O)C(Sc1ccccc1)c1ccccc1 (stereo not drawn)
6.0%,6.2,-4.8%,-5.7%,CC(C)=CCC/C(C)=C/C=N/NC(=O)c1ccc([N+](=O)[O-])cc1
-0.5%,x,0.5%,x,C#CCOCCOCCOCCNc1nc(N2CCN(C(=O)Cn3cc(CCO)nn3)CC2)nc(N2CCN(C(=O)Cn3cc(CCCCN)nn3)CC2)n1
-3.4%,x,-7.8%,x,O=C(COc1ccc(Br)cc1)NNC(=O)c1cc(S(=O)(=O)N2CCOCC2)ccc1Cl
-2.5%,0.3,-3.1%,-1.5%,CCCCNC1=NCCS1
0.1%,-3.0,u,-21.3%,CN(C)c1ccc(C(=S)N2CCN(c3ccccc3)CC2)cc1
-1.4%,x,u,11.4%,CCOC(=O)C1(CCOc2ccccc2)CCN(Cc2cccc(OCCO)c2)CC1
3.5%,3.5,10.9%,-56.0%,O=C(CSc1ncn(-c2ccccc2)n1)c1cccs1
-1.0%,x,10.2%,x,COc1cccc(NC(=O)CC2C(=O)NC3CCCCC3N2C(=O)c2ccccc2)c1 (stereo not drawn)
-0.1%,x,3.9%,15.0%,CC(NC(=O)c1ccco1)C(=O)N1CCN(C(c2ccccc2)c2ccccc2)CC1 (stereo not drawn)
-2.8%,4.0,20.5%,-34.3%,Cc1ccc(OC(=O)Nc2ccccc2)cc1
1.7%,x,u,x,CC1(C)C(CC(=O)O)CC1C(=O)O (stereo not drawn)
-0.5%,x,22.0%,x,COc1ccc(CNS(=O)(=O)c2ccc(F)cc2Br)cc1
1.0%,5.2,14.3%,-0.5%,Cc1c(N=Cc2ccncc2)c(=O)n(-c2ccccc2)n1C
-0.4%,6.6,10.7%,-7.3%,N/C(=N\OC(=O)c1cc(Br)ccc1Cl)c1cccnc1
-2.9%,-1.0,-0.8%,1.3%,Cc1nn(Cc2ccccc2)c(Cl)c1/C=N/NC(=O)CNc1cccc(C(F)(F)F)c1
-1.4%,u,-2.0%,-12.4%,CCCC(=O)NC(c1ccc(OCC)cc1)c1ccc(OC)c(OC)c1 (stereo not drawn)
-6.1%,x,-11.4%,-11.0%,CCN(CC)S(=O)(=O)c1cccc(C(=O)N2CCCc3ccccc32)c1
-0.5%,1.1,3.4%,-11.4%,COCCN(C(=O)CCC(=O)Nc1ccccn1)C(C(=O)NC1CCCC1)c1ccc(OC)cc1 (stereo not drawn)
-1.7%,5.7,2.9%,0.6%,CCN(C1CCS(=O)(=O)C1)S(=O)(=O)c1cccc([N+](=O)[O-])c1 (stereo not drawn)
0.7%,-3.6,-5.0%,-6.6%,O=C(NCCCCO)C(F)(F)C(F)(F)C(F)(F)C(=O)NCCCCO
2.0%,-0.5,13.5%,-6.6%,Cc1ccc([N+](=O)[O-])c(OCCN2CCC(Cc3ccccc3)CC2)c1
-0.7%,-5.5,33.0%,-2.8%,COc1ccc(S(=O)(=O)N(CCC(=O)O)Cc2ccccc2)cc1
3.3%,x,-2.2%,17.3%,COc1ccc(-c2cc(C)no2)cc1S(=O)(=O)Nc1ccc(NC(C)=O)cc1
-5.4%,x,-0.9%,0.6%,COc1ccc(CCN=Cc2ccc(O)cc2)cc1OC
1.1%,4.5,4.3%,-1.4%,O=C(Cn1nc(C(=O)O)c2ccccc2c1=O)c1c[nH]c2ccccc12
-2.2%,x,u,0.0%,Cc1nnc(N2CCCC(C(=O)NCc3ccccc3F)C2)c2nn(-c3ccccc3)c(C)c12 (stereo not drawn)
1.7%,-11.4,-1.5%,-9.7%,COCc1[nH]nc2c1C1(CCSCC1)C(C#N)=C(N)O2
0.0%,4.8,-7.1%,0.2%,Cc1ccccc1OCC(=O)NCCN(C)C
0.3%,x,6.6%,x,O=C1C=C(c2ccc(C(=O)O)cc2)C[C@@H](c2ccc3c(c2)OCO3)C1
-2.9%,-0.6,-26.2%,-0.5%,CCN(CC)S(=O)(=O)c1ccc(-c2nnc(SCC(=O)c3ccc(OC)cc3)o2)cc1
0.1%,x,-0.6%,-0.2%,Cc1cc(-c2nnc(SCC(=O)Nc3ccc(F)cc3)n2N)n[nH]1
0.4%,-23.1,4.5%,-38.4%,Cc1cccc(-n2ncc3c(NCc4ccc5c(c4)OCO5)ncnc32)c1
-0.1%,x,0.3%,-6.3%,Clc1ccc(N2CCN(Cc3ccco3)CC2)cc1
-0.2%,1.4,-18.6%,-6.3%,CCOCC(=O)Nc1cccc(NC(C)=O)c1
3.8%,-0.4,-7.4%,2.2%,Cc1ccc(CC2CC(=O)N(c3ccncc3)C2=O)cc1 (stereo not drawn)
0.2%,4.4,8.6%,-11.0%,COc1ccccc1S(=O)(=O)Nc1cccc(-c2nnc3n2CCCCC3)c1
0.4%,x,18.0%,0.8%,COc1ccc(CSC2=NCCN2)cc1Br
7.1%,x,-0.4%,x,Cc1cnc(C(=O)OCC(=O)c2ccc(Br)s2)cn1
-0.3%,-4.4,-8.5%,2.7%,CN1CCN(S(=O)(=O)c2cccc(C(=O)O)c2)CC1
x,-6.1,x,-5.7%,COc1cccc(C2=CC(c3ccc(N(C)C)cc3)n3ncnc3N2)c1 (stereo not drawn)
3.6%,x,32.0%,-5.7%,CCC(C(=O)OC)n1cnc2c(nnn2-c2ccc(F)cc2)c1=O (stereo not drawn)
-0.7%,6.3,5.1%,-7.1%,CC(C)[C@H](NC(=O)OC(C)(C)C)C(=O)N/N=C/c1cccc2nccnc12
5.9%,x,-1.3%,-2.3%,CCSc1nnc(SCC(=O)N2CCN(C(=O)c3ccco3)CC2)s1
-1.9%,-6.2,7.6%,0.6%,CCN1CCN(CC(=O)N2N=CCC2c2ccccc2)CC1 (stereo not drawn)
-1.5%,x,-26.6%,7.8%,CC(C)C[C@H](NC(=O)c1[nH]cnc1C(=O)N[C@@H](Cc1ccccc1)C(=O)OCc1ccccc1)C(=O)OC(C)(C)C
0.8%,1.6,-3.7%,-0.7%,CCCC(=O)Nc1c(-c2ccccc2)c(=O)c(C)nn1-c1ccccc1
-4.7%,9.6,1.1%,-7.8%,COc1ccc(CCNC(=O)C2CCCN(S(=O)(=O)c3cccc4nonc34)C2)cc1OC (stereo not drawn)
-5.5%,x,-4.2%,-16.0%,O=C(Nc1nccs1)C1CCCN1/C=C/C(=O)C(F)(F)F (stereo not drawn)

# Arranged by length of the SMILES (rising): 4 of the compounds above
Rango complex inh,GLA inh pH 4.5,Rango dissoc inh,miR-21 FLuc,SMILES
-0.2%,1.4,-18.6%,-6.3%,CCOCC(=O)Nc1cccc(NC(C)=O)c1
-0.4%,6.6,10.7%,-7.3%,N/C(=N\OC(=O)c1cc(Br)ccc1Cl)c1cccnc1
5.9%,x,-1.3%,-2.3%,CCSc1nnc(SCC(=O)N2CCN(C(=O)c3ccco3)CC2)s1
-1.4%,x,u,11.4%,CCOC(=O)C1(CCOc2ccccc2)CCN(Cc2cccc(OCCO)c2)CC1

# New compounds follow.
Rango complex inh,GLA inh pH 4.5,Rango dissoc inh,miR-21 FLuc,SMILES
0.3%,-5.3,-4.4%,-3.4%,CCCC(c1nnnn1Cc1ccco1)N1CCN(C2CCCC2)CC1 (stereo not drawn)
3.2%,x,2.6%,-0.3%,COc1ccc(CNC(=O)Cn2cc(C(F)(F)F)ccc2=O)cc1OC
0.5%,x,8.0%,x,COCC1CCN(C(=O)c2ccc3oc(Cc4ccc(Cl)cc4)nc3c2)C1 (stereo not drawn)
3.7%,-3.8,-4.8%,-4.7%,COc1ccc(C(=O)Nc2ccc(Oc3ncnc4sc(-c5ccccc5)cc34)cc2)cc1OC
0.1%,3.3,-27.0%,1.3%,Cc1csc(NC(=O)CSc2nnc(-c3ccoc3C)n2Cc2ccco2)n1
-3.1%,0.5,-18.1%,-0.3%,Cc1cc(=O)[nH]c(-c2ccccc2O)n1
-2.0%,x,-2.1%,-0.3%,Cc1ccc(C(=O)N(CC(=O)NC2CCCC2)c2ccc(F)cc2)s1
-3.2%,-5.3,-15.1%,0.7%,COc1ccc(/C=N/NC(=O)c2ccc(CSc3nc(C)cc(C)n3)cc2)c(OC)c1OC
-0.9%,0.9,-0.1%,-2.4%,CN(C)c1ccc(CNn2cnnc2)cc1
-0.1%,2.8,15.3%,-0.7%,Cc1nnc(SCC(N)=O)n1CCc1ccccc1
-1.0%,-2.8,-16.1%,1.0%,CCN(CC)CCNC(=O)c1ccc(CS(=O)(=O)c2ccc(Br)cc2)o1
u,5.5,13.4%,4.2%,Cc1ccc(S(=O)(=O)N2CCOCC2)cc1NC(=O)Cn1ccsc1=N
-0.5%,x,0.1%,x,CC(=O)CC[C@@H](C)O[C@@H]1OC(C)[C@H](O)CC1O (stereo partly drawn)
-2.2%,10.2,12.4%,-15.1%,Cc1ccc2c(c1)[nH]c1c(=O)n(CCCN3CCOCC3)cnc12
1.1%,-10.7,-3.7%,-8.6%,COc1ccc(-c2cnn(C3CCS(=O)(=O)C3)c2N)cc1 (stereo not drawn)
-1.6%,0.9,-4.0%,4.1%,CC(C)CNC(=O)c1ccccc1NC(=O)CN(c1ccccc1)S(=O)(=O)N(C)C
-1.2%,3.9,-9.8%,-2.3%,C=CCN1C(=O)/C(=C\c2ccc(Cl)cc2)N=C1SCC(=O)NCCC
2.5%,-13.2,-1.9%,3.7%,COc1ccccc1-c1cn[nH]c1-c1ccc(OCc2ccccc2F)cc1O
-0.8%,x,-11.3%,-19.3%,Cc1ccnc(NC(=O)c2ccc([N+](=O)[O-])s2)c1
u,-6.8,-27.0%,-0.1%,CCOC(=O)C1CCN(c2nc3ccccc3nc2C(C#N)C(=O)OC(C)COC)CC1 (stereo not drawn)
0.4%,-3.6,9.6%,-1.2%,COc1cc(CN2CCNC(=O)C2CC(=O)N(C)Cc2cccnc2)cc(OC)c1 (stereo not drawn)
u,x,-24.0%,-0.6%,O=C(c1nc2ccc(Cl)cn2c1CN1CCCC1)N1CCc2ccccc2C1
u,-0.3,18.1%,-16.7%,N#Cc1ncc(C(F)(F)F)cc1Sc1ccc(N)cc1

# Screening results (PubChem)
